Autofluor counter = counter-screen for toxin protease inhibitors: compound fluorescence; compound autofluorescence counterscreen, microsphere flow cytometry; active compounds read high; fluorescence intensity (no concentration beside the values); hit rate 3.1% among 360,000; AID 624483;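 active = at least 3 SD above the mean of all compounds, about 16000 in these data; inconclusive = too few beads counted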;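 also: 100 nL of 1 mM stock went into each well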
BJeLR lethal = BJeLR cell viability loss; BJeLR (HRASV12) viability, CellTiter-Glo ATP luminescence, 48 h; reference of the scale not given here; inhibition, % (test concentration not listed); hit rate 0.17% among 300,000;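 active = replicate mean above 50%; inconclusive = above 50% but judged a plate artefact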;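 also: 50 nL library stock added to about 25 µL; numbers are from one replicate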
PrP 5UTR inh = inhibition of PrP 5' UTR reporter expression. hit rate 0.35% among 340,000. AID 488862. cell-based PrP 5' UTR mRNA reporter, plate reader. inhibition, % (concentration not given with the values);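 active = every replicate at 50% or more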;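 also: 0 = median of the neutral control wells; tested in H4 reporter cells; numbers are from one replicate; inactives centre near -14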
Mtb hypoxia rep = inhibitors of hypoxia-regulated fluorescent reporter in Mycobacterium tuberculosis. hit rate 0.1% among 300,000. M. tuberculosis hypoxia-regulated fluorescent reporter, fluorescence. AID 1159583. fluorescence inhibition, % (test concentration not listed);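 active = 35 to 45% if threefold the growth effect, above 45% if 1.5-fold the growth effect; inactive = the rest, general growth blockers included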;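 also: wells of about 50 µL received 100 nL stock; 0% = vehicle wells and 100% = reference inhibitor wells; whole bacteria with a GFP reporter of the hypoxia response; strong numbers were not always called active; many hits fall short of the cut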
RN4220 kill = S. aureus RN4220 growth inhibition. OD600, 16 h. inhibition, % (test concentration not listed). hit rate 0.33% among 330,000;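 active = z-score of -3 or lower and OD600 up to 0.18 on both plates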;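 also: plate controls were untreated cells for no effect and reference antibiotic for full effect; stock transfer was 100 nL into about 80 µL; one replicate is shown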
Sa ugtP lethal = kills S. aureus RN4220 lacking UgtP | hit rate 0.54% among 330,000 | growth inhibition, % (no concentration beside the values) | AID 1259309 | S. aureus RN4220 ugtP deletion, OD600 growth, 16 h; some inactives read as strong as hits;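 active = z-score under -3 and OD600 up to 0.15 on both plates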;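 also: plate controls were untreated wells for no effect and antibiotic for full effect; wells of about 80 µL received 100 nL stock; the first replicate is given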
Mtb hypoxia rep growth = further read-out of Mtb hypoxia rep, marked with its call; growth inhibition, %; measured here: M. tuberculosis growth (absorbance);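 0% = vehicle and 100% = reference antibiotic; read after six days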
Numbers without * were called inactive; ? = inconclusive; . = no result given.

Each structure is followed by: Autofluor counter, RN4220 kill, BJeLR lethal, Sa ugtP lethal, Mtb hypoxia rep growth, PrP 5UTR inh, Mtb hypoxia rep
Cc1[nH]c2ccccc2c1CCNC(=O)c1ccc2nccnc2c1
→ 3088, 3.0, -6.8, 6.1, 2.7, -12.4, 10.9
O=C1/C(=C\c2ccc(Br)o2)Cc2ccccc21
→ 2514, ., 3.7, ., ., -31.5, .
COc1ccc(CCNC(=O)C2CCCN(S(=O)(=O)N3CCCCCC3)C2)cc1OC (stereo not drawn)
→ 5680, 0.8, -4.3, 1.4, 2.0, -6.5, -7.0
COc1cccc(CN2CCN(C(=O)c3ccco3)CC2)c1
→ 3504, -2.2, -1.1, -3.4, 3.7, -7.5, 8.5
Nc1nnc(SCC(=O)Nc2nccs2)s1
→ 3694, -3.9, -6.4, 0.3, -13.8, -17.9, -2.2
COc1cc(C(=O)Nc2cccc(-c3nncn3C)c2)cc(OC)c1OC
→ 2260, 3.9, 2.2, -5.7, 8.1, -19.8, 3.9
Cc1cccc2cc(CN(CCCO)C(=O)Nc3ccc(Cl)cc3)c(=O)[nH]c12
→ 2896, -13.0, ., -12.9, 11.8, -19.8, 19.3
Cc1cc(NS(=O)(=O)c2ccc(NC(=O)COc3ccccc3C(C)(C)C)cc2)no1
→ 6199, 10.5, -7.4, -11.3, 6.8, -5.9, -1.9
C=CCN(C(=O)Nc1ccc(Cl)cc1)C1CC(=O)N(c2ccc(OC)cc2)C1=O (stereo not drawn)
→ 8563, -0.4, 0.8, 6.0, -1.7, ., 3.6
CSC1=C(C#N)C(C)C2=C(CC(C)(C)CC2=O)N1 (stereo not drawn)
→ 4909, 3.0, 3.0, 6.0, ., -9.1, .
Clc1ccc(C=NNc2ccccc2)cc1
→ ., -1.4, ., 2.1, 2.6, ., 0.0
O=C(NC(C(=O)NN=Cc1cc([N+](=O)[O-])ccc1O)c1n[nH]c(=O)c2ccccc12)c1ccccc1 (stereo not drawn)
→ ., 80.9, ., 51.7, -10.3, ., 3.5
Cc1nnc(N2CCC(C(=O)NC3CCC(C)CC3)CC2)c2nn(-c3ccc(Cl)cc3)c(C)c12 (stereo not drawn)
→ 5781, -3.3, 9.1, -10.0, 9.4, -10.4, -2.5
Cc1ccccc1CC(=O)OCC(=O)Nc1ccc(C)c(S(=O)(=O)N2CCCCC2)c1
→ 3587, 0.2, ., -3.2, 6.7, -14.7, 4.3
CCC(C)C(NC(N)=O)C(=O)Nc1ccc(OCc2ccccc2)cc1 (stereo not drawn)
→ 5426, -5.0, 0.0, -7.2, -1.2, -19.9, -9.4

A few values from the entries so far:
`CCC(C)C(NC(N)=O)C(=O)Nc1ccc(OCc2ccccc2)cc1` (stereo not drawn) in PrP 5UTR inh → -19.9
`Cc1nnc(N2CCC(C(=O)NC3CCC(C)CC3)CC2)c2nn(-c3ccc(Cl)cc3)c(C)c12` (stereo not drawn) in Autofluor counter → 5781
`Cc1cccc2cc(CN(CCCO)C(=O)Nc3ccc(Cl)cc3)c(=O)[nH]c12` in Mtb hypoxia rep → 19.3
`C=CCN(C(=O)Nc1ccc(Cl)cc1)C1CC(=O)N(c2ccc(OC)cc2)C1=O` (stereo not drawn) in Autofluor counter → 8563
`COc1cccc(CN2CCN(C(=O)c3ccco3)CC2)c1` in Autofluor counter → 3504

Next structures:
Each structure is followed by: Autofluor counter, RN4220 kill, BJeLR lethal, Sa ugtP lethal, Mtb hypoxia rep growth, PrP 5UTR inh, Mtb hypoxia rep
CCOc1ccccc1NC(=O)NC1(C(=O)NCC2CCCO2)CCCCC1 (stereo not drawn)
→ 5051, 3.6, -4.4, 3.7, 6.7, -24.0, 8.0
Cc1n[nH]c(=O)nc1NCCc1ccccc1
→ 5265, 1.9, 3.0, 1.9, 4.6, -23.1, 12.8
COc1cc(NS(=O)(=O)c2ccc(NC(=O)c3ccc(C)o3)cc2)nc(OC)n1
→ 16150*, 4.2, 0.9, 8.8, 3.2, -25.9, 7.5
CCCCC(=O)Nc1ccc(C(=O)N2CCCC(C(=O)OCC)C2)cc1 (stereo not drawn)
→ 10108, 4.0, -25.7, 0.4, 3.7, -21.2, 0.8
O=[N+]([O-])c1ccc(/C=[N+](\[O-])CCO)o1
→ 3337, ., -1.0, ., ., -15.9, .
CSc1ccc(/C=N/n2c(C)cc(C)cc2=O)cc1
→ 23602*, ., 0.7, ., ., -32.8, .
C=CCN1C(=O)CS/C1=N/c1nccs1
→ 21993*, ., -19.2, ., ., -28.5, .
CNCCCNC(=O)c1ccc(C=NO)nc1
→ ., 0.3, ., 1.4, 9.4, ., -0.5
CCOC(=O)c1sc2ncn(N=Cc3ccc(O)cc3)c(=O)c2c1C
→ ., 0.0, ., 3.8, -1.0, ., -3.2
CCOc1ccc(-n2c(-c3ccc(Br)cc3)c[n+]3c2CCCCC3)cc1
→ 10633, 4.1, 28.9, -4.5, 19.8, -24.0, 24.4
COc1ccc(CN2CCN(Cc3ccc(CO)o3)CC2CCO)cc1C (stereo not drawn)
→ 3577, 1.7, -8.0, 6.3, -6.9, -59.9, -4.6
Cc1cccc(OCC(=O)NNC(=O)CSc2ncc(C#N)c(N)n2)c1
→ 12972, 1.4, -3.0, 5.7, 15.6, -8.6, 5.6
COC(=O)CSc1cc(C)nc2ccc(OC)cc12
→ 3142, 3.2, 5.7, 2.5, ., -14.2, .
CSc1nsc2nc(=O)c(/C=C3\C(C)=Nc4ccccc43)c(N)n12
→ 4988, 11.5, -4.9, 5.2, 5.9, -16.7, 3.3
CC(=O)c1cc(-c2ccccc2)n(CC(=O)NC2CCCC2)c1C
→ 10159, 2.5, 1.1, -0.8, 6.8, -33.1, 0.8
O=C(COC(=O)CSc1cc(Cl)ccc1Cl)NCc1ccc2c(c1)OCO2
→ 2329, 3.2, -1.2, -1.3, -2.2, -22.6, 4.3
COc1cccc(N=C2SC(C(=O)Nc3ccc(F)cc3)CC(=O)N2C)c1 (stereo not drawn)
→ 7173, 1.7, -13.3, 8.3, -10.5, 0.7, -0.1
CN1CCN(CCP(=O)(c2ccccc2)c2ccccc2)CC1
→ 4572, 3.6, 5.9, 7.9, ., -11.2, .
COCCOC(=O)c1c(C)oc2ccc(OC(=O)c3cccs3)cc12
→ 22293*, 7.3, -4.1, 7.8, 12.6, -41.1, 3.0
CCN(C(=O)CN1CCN(C)CC1)c1c(N)n(Cc2ccccc2)c(=O)[nH]c1=O
→ 4290, 0.6, ., 4.5, 14.6, -2.4, 3.0
O=C(NNc1ccc([N+](=O)[O-])cc1)C1CC2CCCC(C1)C2=O (stereo not drawn)
→ 11136, 2.2, -5.2, -0.4, 2.6, -13.4, 2.4
Cc1oc(-c2cccc(Cl)c2)nc1CS(=O)(=O)CC(=O)NC1CC1
→ 5607, -1.6, -0.6, -1.3, 17.4, -11.9, 4.8
COc1ccccc1N1CCN(S(=O)(=O)c2cc(C(F)(F)F)cc(C(F)(F)F)c2)CC1
→ 4913, 1.9, -6.4, 1.5, -8.3, -7.5, -7.1
CC(=O)c1nn(-c2cccc(Br)c2)cc1C(=O)c1ccccc1
→ ., -2.6, 23.6, 8.1, 4.8, -25.8, 4.2
COc1cccc(/C=N/NC(=O)c2cc3c(OC)c(OC)ccc3[nH]2)c1OC
→ 2211, ., 6.2, ., ., -39.5, .
C=C(C)C(=O)N1CC2(CC(c3cccc(NC(=O)c4ccccc4)c3)=NO2)C[C@@H]1C(N)=O (stereo partly drawn)
→ 3588, ., 2.2, ., ., -21.1, .
CCN(Cc1ccc2c(c1)OCO2)C(=O)/C=C/c1cccc(Br)c1
→ 3788, -0.7, 1.8, -13.0, 4.6, -22.4, 6.3
CC1CN(C(C)CO)C(=O)c2cc(NS(=O)(=O)c3cccs3)ccc2OC1CN(C)C(=O)Nc1ccc(C(F)(F)F)cc1 (stereo not drawn)
→ ., -6.9, ., -6.6, 8.5, ., 12.7
COC(=O)Nc1ccc(S(=O)(=O)N(CCO)CC(F)(F)C(F)F)cc1
→ 10199, -1.8, -5.9, -7.1, 5.7, 14.0, -3.6
Cc1cc(O)c(NC(=O)c2ccc(Br)o2)cc1C
→ 21608*, -5.0, 3.2, -20.5, 4.3, -44.5, 7.5
CC(C)(SC(=S)N1CCOCC1)C(=O)O
→ 2432, 7.5, 1.4, 2.6, 3.1, -8.1, 2.2
COC(=O)C1=C(C)N(C)C(=O)/C1=C\c1cccs1
→ 9292, 6.2, -10.9, 0.5, 8.4, -39.3, 8.4
CCOc1ccc(Oc2c(C)oc3cc(O)ccc3c2=O)cc1
→ 4382, 2.8, -1.4, 6.2, 13.3, -43.3, 7.0
C[C@H](NC(=O)c1nc[nH]c1C(=O)NCC(=O)OC(C)(C)C)C(=O)OCc1ccccc1
→ 2742, ., 1.1, ., ., -0.4, .
COC(=O)Cc1ccc(OCC(=O)NC2CCCC2)cc1
→ 5064, 2.3, ., 5.9, -2.0, -16.9, 3.6
Cc1cc(C)c2[nH]c(=S)cc(C)c2c1
→ 3149, -3.3, -5.0, 11.4, -20.7, -11.2, -94.5
CC(=O)Nc1ccc(NC(=O)C(C)OC(=O)CNS(=O)(=O)c2cccc(Cl)c2)cc1 (stereo not drawn)
→ 4302, -2.4, -1.5, -10.4, -0.2, -21.5, 2.7
Cc1c(C(=O)OCC(=O)N(C)CC(=O)Nc2ccc(F)cc2)oc2ccccc12
→ ., 6.5, ., 11.1, -3.6, ., 5.3
Cc1ccc(NC(=O)OCCN2CCN(Cc3ccccc3)CCC2=O)cc1
→ 4101, 4.6, 12.9, 3.7, 9.6, 2.5, 7.6
CNC(=O)Oc1cccc(-c2cn3cc(OC(=O)NC)ccc3n2)c1
→ 2025, 6.4, ., 6.4, 2.9, -55.9, 11.9
NC(=O)C1CCN(C(=O)CN(c2cccc(Cl)c2)S(=O)(=O)c2ccccc2)CC1
→ ?, 3.2, 2.7, -0.3, 10.7, -5.7, -1.5
O=C(Nc1ccc(F)cc1)C1CCCO1 (stereo not drawn)
→ 2713, 1.0, -1.1, 5.5, -3.6, -36.7, -6.1
CCCSc1nsc(N)n1
→ 17266*, 2.4, 6.1, 10.3, -5.7, -22.6, 7.5
CCNC(=S)N/N=C(\C)c1ccc2ccccc2c1OC(F)F
→ 4061, ., -0.1, ., ., -23.4, .
COc1cc(NC2c3ccccc3C(=O)N2Cc2ccccc2Cl)cc(OC)c1OC (stereo not drawn)
→ 5329, 14.6, 0.3, 3.5, 1.5, -9.9, -5.1
C=CCOC(=O)C(=O)/C=C/c1c(C)n(C)n(-c2ccccc2)c1=O
→ 4026, ., 8.5, ., ., -7.7, .
CC(C)(C)c1ccc(S(=O)(=O)Nc2cccnc2)cc1
→ 8019, 10.1, -4.2, 6.5, 2.3, -6.7, 1.7
COc1cc(/C=C/C(=O)OCC(=O)NC(=O)C2COc3ccccc3O2)ccc1OC(F)F (stereo not drawn)
→ 3894, 3.1, ., 4.6, 12.6, -10.3, 10.0
COc1cccc(C(=O)Nc2ccc3c(cc2=O)[C@@H](NC(C)=O)CCc2cc(OC)c(OC)c(OC)c2-3)c1
→ 3498, 2.2, 22.0, -8.0, 16.6, 3.6, -18.5
CCOc1ccc(N2C(=O)CC(N(CCc3ccc(S(N)(=O)=O)cc3)C(C)=O)C2=O)cc1 (stereo not drawn)
→ 3480, 3.5, 9.8, 2.5, 1.1, -7.0, -8.9
Cc1sc2ncnc(N3CCC(C(=O)N4CC(C)SC4=Nc4ccc(Cl)cc4)CC3)c2c1C (stereo not drawn)
→ 3800, -3.1, ., -16.0, 7.6, -2.8, -2.1
CCOc1ccc(C(C)=O)cc1CN1C(=O)C(=O)N(CC)C1=O
→ 4690, 0.9, -0.8, -0.6, 3.0, -31.5, -8.2
O=C(CSc1nc(-c2ccccc2)cs1)NCCN1C(=O)CSC1=O
→ 4471, 11.5, -16.3, 3.4, -1.7, -38.9, 1.5

Three compounds out of the list, arranged by molar mass, smallest number first:
Each structure is followed by: Autofluor counter, RN4220 kill, BJeLR lethal, Sa ugtP lethal, Mtb hypoxia rep growth, PrP 5UTR inh, Mtb hypoxia rep
O=C(CSc1nc(-c2ccccc2)cs1)NCCN1C(=O)CSC1=O
→ 4471, 11.5, -16.3, 3.4, -1.7, -38.9, 1.5
CCOc1ccc(N2C(=O)CC(N(CCc3ccc(S(N)(=O)=O)cc3)C(C)=O)C2=O)cc1 (stereo not drawn)
→ 3480, 3.5, 9.8, 2.5, 1.1, -7.0, -8.9
COc1cc(/C=C/C(=O)OCC(=O)NC(=O)C2COc3ccccc3O2)ccc1OC(F)F (stereo not drawn)
→ 3894, 3.1, ., 4.6, 12.6, -10.3, 10.0

Hits appear at their usual frequency; overall some 4% were active at least once.
